High-throughput results as filed in PubChem.
Polio RdRp inh: poliovirus RdRp elongation inhibitors, primary screen, biochemical, fluorescence polarization, total intensity | hit rate 0.66% among 150,000 | % elongation, % (compound at 16.7 µg/mL) | poliovirus polymerase elongation; active compounds read low | Genome polyprotein (Poliovirus type 1 (strain Mahoney)), P03300; in the data active means % elongation below about 90%; further: some results filed as inactive read as strong as hits
Target sequence (P03300 1749-2209 limits assumed): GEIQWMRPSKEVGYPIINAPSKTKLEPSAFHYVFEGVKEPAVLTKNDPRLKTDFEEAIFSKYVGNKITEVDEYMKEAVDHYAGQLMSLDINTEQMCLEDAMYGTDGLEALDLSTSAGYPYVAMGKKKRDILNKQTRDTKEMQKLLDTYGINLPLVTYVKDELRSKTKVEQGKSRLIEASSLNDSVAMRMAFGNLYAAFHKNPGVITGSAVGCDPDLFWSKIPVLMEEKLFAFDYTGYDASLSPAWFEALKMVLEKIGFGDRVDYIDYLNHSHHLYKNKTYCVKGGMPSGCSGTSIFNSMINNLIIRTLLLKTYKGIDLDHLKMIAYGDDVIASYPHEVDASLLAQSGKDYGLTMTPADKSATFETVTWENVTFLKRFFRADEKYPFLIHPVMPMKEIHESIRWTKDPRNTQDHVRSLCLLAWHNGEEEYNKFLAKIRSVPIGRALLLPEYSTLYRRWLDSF
Polio RdRp inh intensity: also measured in Polio RdRp inh; calls as there; % elongation; measured here: total intensity read-out; formula for this scale not given here;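 total fluorescence in place of polarization; lower means less elongation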
* hit, by the source's call. The list is partial; rates above refer to the full screens.

SMILES	Polio RdRp inh	Polio RdRp inh intensity
Cc1ccc2nc(COc3ccccc3NC(=O)Nc3ccc(F)c(Cl)c3)cc(=O)n2c1	106.0	107.0
Cc1ccsc1CN(C(=O)c1ccc(Br)cc1)C1CCS(=O)(=O)C1 (centres undefined)	125.0	125.0
CCOC(=O)c1cnc(NCc2ccc(OC)cc2OC)c2ccccc12	102.0	99.0
COc1cccc(CNC(=O)c2cc(-c3ccc(Cl)cc3)n[nH]2)c1	106.0	98.0
Cc1oc2ccc(O)c(CN3CCN(C)CC3)c2c1C(=O)Nc1cccc(Cl)c1C	109.0	107.0
CCOc1cc(C#N)c(-n2nnc3c(sc4nc(C)cc(C)c43)c2=O)cc1OCC	78.0*	84.0*
CCc1nnc2c(Nc3cc(OC)c(Cl)cc3OC)nc3ccccc3n12	105.0	106.0
COc1ccc(CNC(=O)c2sc3nc4n(c(=O)c3c2C)CCCCC4)cc1	108.0	114.0
CCCCN(CC)CCCNC(=O)c1nn(-c2ccc(OC)cc2)c(=O)c2c1c1ccccc1n2C	106.0	108.0
CCOC(=O)c1ccc(NC(=O)Cn2cc(S(=O)(=O)Cc3ccccc3F)c3ccccc32)cc1	104.0	107.0
CCCCOc1ccc(C(=O)NCCc2csc3nc(-c4ccccc4F)nn23)cc1	108.0	112.0
Cc1ccc(C)c(N2CCN(C(=O)C3CCN(c4nc(-c5ccc(C(C)C)cc5)no4)CC3)CC2)c1	107.0	113.0
CCOc1ccc(Nc2c3c(nc4nncn24)CCC3)cc1	115.0	117.0
Cc1ccc(C2=NN(CCC(=O)NCCc3cccc(C)c3)C(=O)CC2)cc1	101.0	99.0
CCOC(=O)c1cccc(NC(c2nnc(-c3ccccc3)o2)c2ccccc2F)c1 (centres undefined)	106.0	112.0
CCC(=O)N1CCc2cc(CNS(=O)(=O)c3cc(OC)ccc3OC)ccc21	114.0	102.0
CCc1nn(CC(=O)NCCc2ccc(OC)cc2OC)c(=O)c2cc3c(OC)cccc3n12	103.0	106.0
Cc1cccc(N2C(=O)CS(=O)(=O)C23C(=O)N(Cc2c(F)cccc2Cl)c2ccccc23)c1 (centres undefined)	101.0	101.0
Cc1csc2nc(COC(=O)c3ccccc3NC(=O)c3ccc(C(C)(C)C)cc3)cc(=O)n12	107.0	108.0
COc1ccc(Cn2c(SCc3ccc(C(=O)NCc4cccs4)cc3)nc3cccnc32)cc1	112.0	107.0
CCOc1ccc(-c2cc(NC(=O)c3c(F)cccc3F)c(C(=O)OC)s2)cc1	109.0	111.0
Cc1ccc(-n2nc(C)c3c(C)c(CCC(=O)NC(C)c4ccccc4)c(C)nc32)cc1 (centres undefined)	105.0	103.0
Cc1ccc(NC(=O)CCS(=O)(=O)c2ccc3nc(C)sc3c2)cc1	98.0	87.0
CCOC(=O)c1ccc(NC(=O)c2c(NCc3cc(OC)ccc3OC)sc3c2CCC3)cc1	129.0	129.0
Cc1ccc(N(CC(=O)Nc2cc(C)ccc2C)S(=O)(=O)c2c(C)noc2C)cc1	111.0	109.0
CCCc1nc2sc3c(N4CCCCC4)ncnc3c2c2c1CCCC2	107.0	110.0
Cc1cc(C)c(S(=O)(=O)Nc2cc(Cl)c3oc4c(c3c2)C(=O)CCC4)cc1C	101.0	112.0
CN(C)CCNC(=O)c1ccc2c(c1)N(Cc1c(F)cccc1Cl)C(=O)c1ccccc1S2	107.0	106.0
CC1CCCCN1c1nnc(NC(=O)Nc2ccccc2F)s1 (centres undefined)	110.0	115.0
CC1=C(C(=O)NCc2ccccc2F)C2(CCCCC2)OC1=O	104.0	106.0
CCCCc1nn2c(=O)cc(COC(=O)c3ccccc3NC(=O)c3ccccc3OC)nc2s1	110.0	108.0
CCC(C)NC(=O)Cn1ccc2cc(S(=O)(=O)N3CCCCC3)ccc21 (centres undefined)	103.0	109.0
Cc1nnc(NC(=O)c2cccn(Cc3ccccc3F)c2=O)s1	109.0	97.0
Cc1cccn2c(=O)c(C(=O)NCCCN3CCCCC3C)c(O)nc12 (centres undefined)	103.0	108.0
COc1cc(OC)cc(C(=O)NCCc2csc(-c3ccc(C(F)(F)F)cc3)n2)c1	104.0	107.0
CCOC(=O)CC(NC(=O)c1cc2cc(Cl)ccc2oc1=O)c1ccc(C)cc1 (centres undefined)	108.0	106.0
Cc1ccc(S(=O)(=O)c2cn(Cc3ccccc3F)c3cc4c(cc3c2=O)OCO4)cc1	102.0	105.0
COCCn1c(-c2ccccc2)c(C)n2c3c(=O)n(C)c(=O)n(C)c3nc12	110.0	109.0
COc1ccc(N2CCN(C(=O)CN(C)S(=O)(=O)c3cccs3)CC2)cc1	109.0	111.0
CCCNS(=O)(=O)c1cc(-c2nnc3c4ccccc4c(C)nn23)ccc1OC	109.0	111.0
CCOc1ccc(NC(=O)c2oc3ccccc3c2NC(=O)C2CCCCC2)cc1	106.0	109.0
COC(=O)c1ccc(NC(=O)C(C)Sc2nc(=O)cc(N)n2CCc2ccccc2)cc1 (centres undefined)	106.0	104.0
Cc1cccc(Cn2c(CNS(=O)(=O)c3ccc(C(C)C)cc3)nc3cccnc32)c1	113.0	118.0
COc1ccc(C2C(=O)N(C3CCC(C)CC3)CC(=O)N2C2CCCCC2)cc1OC (centres undefined)	115.0	117.0
COc1ccccc1NC(=O)COC(=O)CC(C)(C)CC1=NS(=O)(=O)c2ccccc2N1	107.0	105.0
Cc1nc2c(-c3ccccc3)c(C)[nH]n2c(=O)c1Cc1ccc(C(C)C)cc1	106.0	112.0
COc1cc(OC)cc(C(=O)Nc2ccc3c(c2)OCCO3)c1	102.0	105.0
Cc1cc(O)c(C(c2cccc(Cl)c2)N2CCN(c3ccccc3)CC2)c(=O)n1Cc1ccco1 (centres undefined)	112.0	112.0
CCN1CCC(N(Cc2cccc(OC)c2)C(=O)Nc2ccc(C)cc2Cl)CC1	105.0	110.0
Cc1ccc(Cn2c(SCc3ccc(C(=O)N4CCCCCC4)cc3)nc3ccncc32)cc1	102.0	103.0
O=C(Nc1ccc(NC(=O)c2cccs2)cc1)c1cccc(Br)c1	109.0	107.0
Cc1c(C(=O)N2CCC(C)CC2)c(S(=O)(=O)N(Cc2ccccc2)C(C)(C)C)c(C)n1C	106.0	112.0
COc1ccccc1CNC(=O)C(=O)NCC(c1ccco1)S(=O)(=O)c1ccc(C)cc1 (centres undefined)	106.0	112.0
COc1cccc(Nc2sc(C(=O)c3ccc4c(c3)OCO4)c(N)c2S(=O)(=O)c2ccccc2)c1	103.0	113.0
CC(C)(C)C1CCc2c(sc(NC(=O)c3ccncc3)c2C(=O)Nc2ccccc2Cl)C1 (centres undefined)	93.0	93.0
CCC(C(=O)O)n1ccc2cc(S(=O)(=O)N3CCCCC3)ccc21 (centres undefined)	103.0	106.0
Cc1cccc(CCNC(=O)c2ccc(CSCc3cccc(Cl)c3)o2)c1	104.0	111.0
Cc1cccc(N(C)C(=O)CCNS(=O)(=O)c2ccc3c(c2)CCN3C(=O)C2CC2)c1	113.0	113.0
COc1ccccc1CNC(=O)C(=O)NCC(c1ccco1)S(=O)(=O)c1cccs1 (centres undefined)	103.0	108.0
COc1ccc(OC)c(NC(=O)CCc2c(C)nc3c(c(C)nn3C(C)(C)C)c2C)c1	102.0	106.0

Quoted at random: seven entries already listed
SMILES	Polio RdRp inh	Polio RdRp inh intensity
Cc1ccc(Cn2c(SCc3ccc(C(=O)N4CCCCCC4)cc3)nc3ccncc32)cc1	102.0	103.0
CC(C)(C)C1CCc2c(sc(NC(=O)c3ccncc3)c2C(=O)Nc2ccccc2Cl)C1 (centres undefined)	93.0	93.0
CCC(C(=O)O)n1ccc2cc(S(=O)(=O)N3CCCCC3)ccc21 (centres undefined)	103.0	106.0
COc1ccccc1CNC(=O)C(=O)NCC(c1ccco1)S(=O)(=O)c1cccs1 (centres undefined)	103.0	108.0
COc1ccccc1CNC(=O)C(=O)NCC(c1ccco1)S(=O)(=O)c1ccc(C)cc1 (centres undefined)	106.0	112.0
O=C(Nc1ccc(NC(=O)c2cccs2)cc1)c1cccc(Br)c1	109.0	107.0
Cc1c(C(=O)N2CCC(C)CC2)c(S(=O)(=O)N(Cc2ccccc2)C(C)(C)C)c(C)n1C	106.0	112.0

(further entries)
SMILES	Polio RdRp inh	Polio RdRp inh intensity
Cc1c(Cl)cccc1NC(=O)N1CCOc2ccccc21	110.0	109.0
CCCCCSc1nnc2c(n1)OC(c1ccc(C)s1)N(C(C)=O)c1ccccc1-2 (centres undefined)	107.0	107.0
O=C(Cn1c(=O)n(-c2ccccc2Cl)c(=O)c2sc3ccccc3c21)N1CCCC1	100.0	103.0
CCOC(=O)c1cc(-c2ccc(C)cc2)n(CC(=O)Nc2cc(C)ccc2C)c1C	106.0	113.0
COc1ccc(N2CCN(C(=O)C3CCN(Cc4nc(-c5ccc(Cl)cc5)oc4C)CC3)CC2)cc1	108.0	109.0
Cc1ccn2c(=O)cc(COc3ccc(NC(=O)COc4ccc(C)c(C)c4)cc3)nc2c1	112.0	116.0
Fc1ccc(C2=CC(c3ccc(F)cc3)n3c(nc4ccccc43)N2)cc1 (centres undefined)	108.0	121.0
O=S1(=O)c2ccccc2N(Cc2cccc(Cl)c2)c2ccccc21	112.0	114.0
CCOC(=O)c1[nH]c(C)c(CCC(=O)NCc2ccc(OCC)cc2)c1C	108.0	111.0
CCN(Cc1ccccc1)S(=O)(=O)c1ccc2c(c1)CCCN2C(C)=O	102.0	102.0
CCOc1ccc(NC(=O)Cn2c(=O)n(-c3cccc(OC)c3)c(=O)c3c4c(sc32)CCCC4)cc1	109.0	110.0
CCOc1ccccc1CNC(=O)c1ccc(N2Cc3ccccc3Oc3ncccc32)s1	113.0	107.0

Single records, as listed above:
Cc1ccn2c(=O)cc(COc3ccc(NC(=O)COc4ccc(C)c(C)c4)cc3)nc2c1 is listed with Polio RdRp inh = 112.0; Polio RdRp inh intensity = 116.0
CCOC(=O)c1cc(-c2ccc(C)cc2)n(CC(=O)Nc2cc(C)ccc2C)c1C is listed with Polio RdRp inh = 106.0; Polio RdRp inh intensity = 113.0

More records follow.
SMILES	Polio RdRp inh	Polio RdRp inh intensity
O=C(CSc1nnc(-c2cccs2)o1)Oc1ccc(Cl)cc1	96.0	97.0
CCc1cccc(N2C(=O)CSC23C(=O)Nc2ccccc23)c1 (centres undefined)	107.0	111.0
CCn1cc(C(=O)N(C)c2cc(C)ccc2C)c2cc(OC)c(OC)cc2c1=O	106.0	104.0
CSCCC(NS(=O)(=O)c1ccc2c(c1)oc(=O)n2C)C(=O)N1CCN(c2ccc(F)cc2)CC1 (centres undefined)	102.0	114.0
CCOC(=O)N1CCC(NC(=O)c2cnn(-c3ccccc3)c2C2CCN(C(=O)OC(C)(C)C)CC2)CC1	99.0	97.0
CCCOc1ccc(NC(=O)C(=O)NCCCN2CCOCC2)cc1	110.0	111.0
COc1ccc(N2CC(NC(=O)/C=C\c3ccccc3)CC2=O)cc1 (centres undefined)	103.0	101.0
CCc1ccc(N2C(=O)CSC23C(=O)N(Cc2cccc(F)c2)c2ccccc23)cc1 (centres undefined)	110.0	93.0
CC(NC(=O)CN1C(=O)COc2ccc(Cl)cc21)c1ccccc1 (centres undefined)	106.0	107.0
COc1cc(OC)c(NC(=O)NCc2ccc3c(c2)CCN3C(=O)c2ccccc2)cc1Cl	111.0	110.0
C=C(C)CSc1nc2sc3c(c2c(=O)n1-c1ccccc1)CC(C(C)C)OC3 (centres undefined)	104.0	107.0
COC(=O)c1c(NC(=O)c2cc3nc(-c4ccc(OC)cc4)cc(C(F)(F)F)n3n2)sc2c1CCCC2	98.0	100.0
COc1ccc(NC(=O)CSc2nnc3c(C)cc4ccccc4n23)cc1	102.0	99.0
Cc1cc(C)c(NC(=O)CSc2nc(=O)[nH]c3c2CCCC3)c(C)c1	111.0	109.0
COC(=O)c1ccc(C(=O)Nc2ccc(-c3nc4cc(NC(=O)c5ccc(C(=O)OC)cc5)ccc4o3)cc2)cc1	95.0	100.0
CCn1c(=N)c(C(=O)NCc2ccccc2)cc2c(=O)n3cc(C)ccc3nc21	112.0	113.0
CSc1ccc(CCNC(=O)CN2C(=O)c3cccnc3Oc3ccc(C)cc32)cc1	107.0	104.0
COc1ccc(C(=O)Nc2ccc3oc(-c4cccnc4)nc3c2)cc1	105.0	109.0
COc1cc(NC(=O)Cn2c(=O)n(Cc3ccccc3)c(=O)c3oc4ccccc4c32)cc(OC)c1	108.0	105.0
COc1ccc(Cn2c(CCC(=O)Nc3ccc(C)cc3C)nc3cccnc32)cc1	106.0	108.0
CC(C)c1ccc2c(c1)-c1ccccc1S(=O)(=O)N2CC(=O)N1CCCCC1	107.0	107.0
CCOc1ccc(N(C)S(=O)(=O)c2ccc3c(c2)C(C)(C)C(=O)N3C)cc1	105.0	106.0
CN(C)c1ccc(C(CNC(=O)c2ccc(C(C)(C)C)cc2)N2CCOCC2)cc1 (centres undefined)	111.0	109.0
COc1ccccc1NC(=O)CCCOc1cc(=O)n(C)c2ccccc12	101.0	98.0
CCOc1ccc(NC(=O)Cn2nnc(C(=O)Nc3ccc(OCC)cc3)c2N)cc1	116.0	117.0
CCc1nn2c(=O)cc(COC(=O)C(c3ccccc3)c3ccccc3)nc2s1	111.0	108.0
CC1CCCCN1S(=O)(=O)c1cc2c(=O)nc3ccccn3c2cc1Cl (centres undefined)	104.0	100.0
CCOC(=O)c1cccc(NC(=O)N2CCC(CN3CCc4ccccc4C3)CC2)c1	114.0	109.0
CC(C)NC(=O)N1[C@H](c2cccs2)[C@@H](C)C(=O)[C@@H](C)[C@@H]1c1cccs1	110.0	113.0
Cn1c(=O)n(C)c2cc(N3CCCCC3)c(NC(=O)Nc3ccc(Br)cc3)cc21	109.0	108.0
CC1=C(C(=O)N2CCN(c3ccc(Cl)cc3)CC2)C2(CCC(C)CC2)OC1=O (centres undefined)	102.0	108.0
Cc1cc(C)c(S(=O)(=O)N2CCN(Cc3nc4ccc(C)cc4o3)CC2)c(C)c1	107.0	101.0
CCC(=O)Nc1ccccc1-c1nc2ccccc2n(CC(=O)Nc2ccc(C)c(C)c2)c1=O	110.0	115.0
O=C(Cn1cc(S(=O)(=O)N2CCCC2)c(S(=O)(=O)N2CCCC2)c1)Nc1cccc(F)c1	109.0	108.0
CC(CNC(=O)CCCn1c(=O)c2cccn2c2ccc(F)cc21)c1ccccc1 (centres undefined)	105.0	106.0
COc1cc(-c2cc(OC)c3c(C)oc(C)c3c(=O)c2)ccc1OC(=O)c1ccccc1C	97.0	81.0
